High-throughput results (PubChem BioAssay)
Sa ugtP lethal = growth inhibition of S. aureus ugtP deletion strain. S. aureus RN4220 ugtP deletion, OD600 growth, 16 h; some inactives read as strong as hits. growth inhibition, % (concentration not given with the values). 0.54% of 330,000 active. AID 1259309;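 active means z-score under -3 and OD600 up to 0.15 on both plates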;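 further: plate controls were untreated wells for no effect and antibiotic for full effect; wells of about 80 µL received 100 nL stock; the first replicate is given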
BJeLR viability = BJeLR cell viability loss. BJeLR (HRASV12) viability, CellTiter-Glo ATP luminescence, 48 h; reference of the scale not given here. inhibition, % (test concentration not listed). 0.17% of 300,000 active. AID 1554;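 active means replicate mean above 50%; inconclusive means above 50% but judged a plate artefact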;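 further: 50 nL library stock added to about 25 µL; numbers are from one replicate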
Mtb hypoxia rep = Mtb hypoxia fluorescent reporter inhibition. 0.1% of 300,000 active. AID 1159583. M. tuberculosis hypoxia-regulated fluorescent reporter, fluorescence. fluorescence inhibition, % (no concentration beside the values);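 active means 35 to 45% if threefold the growth effect, above 45% if 1.5-fold the growth effect; inactive means the rest, general growth blockers included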;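 further: wells of about 50 µL received 100 nL stock; 0% = vehicle wells and 100% = reference inhibitor wells; whole bacteria with a GFP reporter of the hypoxia response; strong numbers were not always called active; many hits fall short of the cut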
PrP 5UTR inh = suppresses PrP 5' UTR mRNA reporter expression; inhibition, % (no concentration beside the values); 0.35% of 340,000 active; AID 488862; cell-based PrP 5' UTR mRNA reporter, plate reader;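 active means every replicate at 50% or more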;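 further: 0 = median of the neutral control wells; tested in H4 reporter cells; numbers are from one replicate; inactives centre near -14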
Bead autofluor = counter-screen for toxin protease inhibitors: compound fluorescence. compound autofluorescence counterscreen, microsphere flow cytometry; hits give high values. fluorescence intensity (concentration not given with the values). 3.1% of 360,000 active. AID 624483;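 active means at least 3 SD above the mean of all compounds, about 16000 in these data; inconclusive means too few beads counted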;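 further: 100 nL of 1 mM stock went into each well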
Sa RN4220 lethal = kills Staphylococcus aureus RN4220 | inhibition, % (no concentration beside the values) | S. aureus RN4220 growth, OD600, 16 h | 0.33% of 330,000 active;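 active means z-score of -3 or lower and OD600 up to 0.18 on both plates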;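 further: plate controls were untreated cells for no effect and reference antibiotic for full effect; stock transfer was 100 nL into about 80 µL; one replicate is shown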
Mtb hypoxia rep growth = second read-out of Mtb hypoxia rep, no call of its own (marks repeat the call); growth inhibition, %; measured here: M. tuberculosis growth (absorbance);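 0% = vehicle and 100% = reference antibiotic; read after six days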
The depositor's hits bear a star; ? = inconclusive; nt = no result given; & = joins results of further samples.

SMILES | Sa ugtP lethal | BJeLR viability | Mtb hypoxia rep | Mtb hypoxia rep growth | PrP 5UTR inh | Bead autofluor | Sa RN4220 lethal
CCOC(=O)C1CCCN(C(=O)C2CCN(S(=O)(=O)CC)CC2)C1 (configuration not stated) | 3 | -4 | 16 | 10 | -9 | 10502 | 1.1
Cc1ccc(NC2=NCCCS2)c(C)c1C | -1 | -2 | -13 | -6 | -5 | 2118 | 0.3
CN(C)c1ccc(C2N(c3ccc(Cl)cc3)C(=O)C3CCCN32)cc1 (configuration not stated) | -2 | -9 | nt | nt | -13 | 5004 | -2.2
CS(=O)(=O)N1CCC(Oc2ccccc2C(=O)NCCCc2cccnc2)CC1 | -9 | 4 | -10 | 0 | -12 | 4231 | 2.5
CC1(C(=O)NC(=S)N(CCC#N)Cc2cccnc2)CC1(Cl)Cl (configuration not stated) | 6 | 6 | 14 | 0 | nt | nt | 12
COc1ccc(CCNC(=O)c2ccc3nc[nH]c3c2)cc1 | 1 | -4 | -8 | -4 | -11 | 5966 | -0.1
CC1CCN(C2=C(NS(=O)(=O)c3ccc(Br)cc3)C(=O)c3ccccc3C2=O)CC1 | -28 | 8 | -13 | 5 | -28 | 4284 | -13
CCC(=O)NNc1nc2c(C)cc(C)cc2s1 | -2 | 3 | 10 | 5 | -6 | 4187 | -3.5
COc1cccc(C(=O)Nc2ccccc2C(=O)NC2CC2)c1 | 1 | 3 | -8 | -14 | 2 | 6073 | 2.8
CCN(CC(=O)Nc1ccc(NC(C)=O)cc1)C(=O)CCN1C(=O)C2CC=CCC2C1=O (configuration not stated) | 0 | nt | 1 | 0 | -12 | 6306 | -0.6
CCCCCC(C)NC(=S)NC(=O)c1cc(S(=O)(=O)N2CCOCC2)ccc1C (configuration not stated) | -3 | 2 | 13 | 0 | 10 | 1962 | 0.5
CCc1ccc(S(=O)(=O)Nc2ccc(Cl)cn2)cc1 | 0 | 18 | 4 | -4 | -3 | nt | 14
CCOC(=O)C1CCCN(C(=O)c2cc3nc(-c4cccc(OC)c4)cc(C(F)(F)F)n3n2)C1 (configuration not stated) | -3 | -7 | 0 | 11 | -3 | 9305 | 8.5
Cc1cc2c(C)nc(NN=Cc3ccccc3)nc2o1 | 2 | nt | 0 | 9 | nt | nt | 1.9
O=C(/C=C/c1ccc(S(=O)(=O)N2CCOCC2)cc1)Nc1ccc(F)c(F)c1F | -2 | nt | 10 | 8 | 4 | 8001 | 2.1
COc1cc(C(F)(F)F)nc2ccc(C#CCOC(=O)Nc3ccccc3)cc12 | -11 | -2 | 20 | 15 | -26 | 3298 | 0.5
O=C(O)CCSc1ccc2ccccc2n1 | 2&-1 | -4&-15 | 6 | 1 | -1&-13 | 4673&9163 | 5.2&5.6
CCOC(=O)c1ccc(NC(=O)NC2CC3CCC(C2)N3C(=S)NC)cc1 (configuration not stated) | 0 | -1 | -2 | 6 | -10 | 4139 | 3.4
C#Cc1cccc(NC(=O)Cc2cccs2)c1 | -21 | -2 | 7 | -4 | -12 | 3171 | 3.6
O=C(COc1ccc(F)cc1)N1c2ccccc2CCc2ccccc21 | 1 | -11 | 8 | -4 | -16 | 2795 | 0.2
COc1ccc(CN2CC(C(=O)N3CC(C)CC(C)C3)CC2=O)cc1 (configuration not stated) | 0 | 3 | 9 | 1 | -9 | 5784 | 1.3
COc1ccc(C(=O)N2CCCC(c3nc(-c4cc(OC)c(OC)c(OC)c4)no3)C2)cc1 (configuration not stated) | 4 | 12 | -7 | 2 | -19 | 10715 | 1.2
Cc1ccc(C(C#N)N2CCOCC2)cc1 (configuration not stated) | 0 | 2 | 2 | 10 | -3 | 22170* | 3.0
COc1cccc(C=NNC(=O)c2ccoc2C)c1O | 5 | nt | 9 | 11 | nt | nt | 3.0
Cc1nn(C(C)C(=O)NC2CCCCC2)c(=O)c2nn(-c3ccccc3)c(C)c12 (configuration not stated) | 3 | 4 | -1 | 5 | -3 | 5225 | 3.0
SMILES | Sa ugtP lethal | BJeLR viability | Mtb hypoxia rep | Mtb hypoxia rep growth | PrP 5UTR inh | Bead autofluor | Sa RN4220 lethal
COCON1C(=O)CN(C(C)=O)C1c1ccc(Cl)cc1Cl (configuration not stated) | -4 | 2 | nt | nt | -6 | 2596 | 1.6
CCc1nn2c(NCCCO)cc(C)nc2c1-c1ccc(F)cc1 | 9 | -5 | 8 | -6 | -31 | 3918 | 4.8
CC(C)(C)c1cc(-c2n[nH]c(=S)n2-c2ccccc2F)n[nH]1 | -4 | 3 | 12 | 2 | -30 | 4062 | 3.0
Cc1ccc(N/C(CSC(N)=O)=N/S(=O)(=O)c2ccccc2)cc1 | nt | 2 | nt | nt | -21 | 4110 | nt
CCn1c(CCC(N)=O)nnc1SCC(=O)Nc1cccc(S(=O)(=O)N2CCCC2)c1 | 4 | nt | -2 | 5 | -21 | 3820 | 1.0
CC(C)(C)c1csc(NC(=O)CSc2nc3ccccc3c(=O)[nH]2)n1 | -20 | 4 | -1 | 12 | -17 | 19081* | 8.4
O=C(NC12CC3CC(CC(C3)C1)C2)OCCNC1CCCCC1 | 3 | 3 | 12 | 6 | -12 | 3946 | 0.7
CCOC(=O)c1c(-c2ccc(OC)cc2)csc1N=CC1=C(O)CCCC1=O | 68 | nt | 7 | -5 | nt | nt | 1.3
Cc1cc(C)n(C(=O)CNC(=O)/C=C/c2ccccc2)n1 | 5 | -8 | 6 | 4 | -27 | 4109 | 0.5
CC(C)Cn1cnc2c1c(=O)n(CC(=O)Nc1ccc3c(c1)OCO3)c(=O)n2Cc1ccccc1 | 1 | -3 | 0 | 3 | -24 | 3788 | 3.0
Cc1cccc(CCNS(=O)(=O)c2ccc(S(=O)(=O)N3CCC(C)CC3)cc2)c1 | -2 | 0 | -5 | -4 | nt | 8054 | 1.7
Cc1nn2c(-c3ccccc3)c(-c3ccccc3)nc2[nH]c1=O | 7 | -2 | nt | nt | -22 | 3493 | 1.0
CN(C)CCSc1nnc2[nH]c3ccccc3c2n1 | 7 | 12 | 3 | 8 | -14 | 2028 | 1.3
CC(=O)c1ccc(N2CCN(C(=O)C3CCN(S(=O)(=O)c4ccc(F)cc4)CC3)CC2)cc1 | 3 | nt | -1 | -4 | 7 | ? | 0.0
Cc1ccccc1OCCC(=O)OCC(=O)NC1CCCC1 | 8 | -1 | 10 | 0 | -17 | ? | 2.8
CCc1cc(C(=O)N2CCN(c3ccccc3OC)CC2)sc1C | -2 | -2 | 9 | 1 | -34 | 4020 | 1.7
CCn1c(=O)cc(N2CCN(Cc3ccccc3)CC2)[nH]c1=O | -4 | 9 | 14 | 7 | -16 | 5280 | -14
COCCCNC(=O)Cn1cnc2c(OCc3ccccc3)ncnc21 | 9 | nt | -5 | 1 | -26 | 3033 | 4.6
COc1cccc(NC(=O)Cn2cc3c(n2)CCCCC3)c1 | 1 | -8 | nt | nt | -11 | 5300 | -1.1
COC(=O)c1ccccc1NC(=O)c1nc(S(=O)(=O)Cc2ccccc2)ncc1Cl | 10 | 11 | 0 | 4 | -9 | nt | 5.8
COc1ccccc1N1CCN(c2ncnc3sc(C(=O)NCC4CCCO4)c(C)c23)CC1 (configuration not stated) | 3 | 9 | -1 | 2 | -11 | 5525 | -0.9
COc1ccc(/C=C2\CCC/C(=C\C=NN(C)C)C2=O)cc1 | 2 | nt | 20 | 1 | nt | nt | 12
CS(=O)(=O)N1CCN(C(=O)C(Sc2ccccc2)c2ccccc2)CC1 (configuration not stated) | 8 | nt | 5 | 15 | -6 | 9831 | 1.3
COc1ccc(CNCC(=O)Nc2sccc2C#N)cc1 | -5 | -12 | 5 | -9 | nt | nt | -0.1
CC1CCC(=O)N(CCOc2ccccc2)CC1 (configuration not stated) | 1 | 5 | 9 | 4 | -37 | 3915 | -14
SMILES | Sa ugtP lethal | BJeLR viability | Mtb hypoxia rep | Mtb hypoxia rep growth | PrP 5UTR inh | Bead autofluor | Sa RN4220 lethal
CC(=O)Nc1ccc(S(=O)(=O)NCCNS(=O)(=O)c2ccc(NC(C)=O)cc2)cc1 | 2 | 2 | -8 | -7 | -14 | 4017 | 0.7
Cc1nc(-c2ccc(NS(=O)(=O)c3ccccc3)cc2)cs1 | 3 | 4 | 7 | 5 | -19 | 3083 | 12
CC(c1ccco1)N(C(=O)COc1ccc(Cl)cc1Cl)c1ccccn1 (configuration not stated) | -3 | 20 | -6 | 4 | -86 | 9470 | 3.6
N#Cc1cccc(N=c2ssnc2Cl)c1 | 5 | 4 | 4 | 0 | -17 | nt | 4.4
CCN(Cc1ccccc1)CC(O)COC(c1ccc(OC)cc1)c1ccc(OC)cc1 (configuration not stated) | 10 | 0 | 4 | 4 | -16 | 5885 | -3.8
COc1cccc(CNCCO)c1OCc1ccccc1Cl | -1 | 6 | 3 | -3 | -11 | 2482 | -3.5
Cc1cc2c3c(c1)C1(C(=O)N3C(C)(C)CC2C)C(C#N)=C(N)Oc2n[nH]c(C)c21 (configuration not stated) | -19 | -14 | 2 | -1 | 5 | 21117* | 25
CC(C)OC(=O)C1OC1(C)c1ccccc1 (configuration not stated) | 8 | nt | 10 | 2 | -14 | 2870 | 7.4
O=S(=O)(Oc1ccccc1)c1ccc(Cl)c(Cl)c1 | 3 | nt | 11 | 8 | -28 | 4067 | 11
CCNC(=S)N=Nc1c(O)n(Cc2ccc(Cl)cc2)c2ccccc12 | -18 | 16 | 5 | -3 | 16 | 2430 | 2.5
COc1ccc(OC(=O)c2c(C)nn(-c3ccccc3)c2C)cc1 | 10 | 2 | 14 | 0 | -61 | 4661 | 6.0
Nc1c(N(CCCO)C(=O)C2CCCC2)c(=O)[nH]c(=O)n1Cc1ccccc1 | 4 | nt | -5 | 6 | -4 | 3742 | 0.6
Cn1c(CN2CCC(C(N)=O)CC2)c(C#N)c2ccccc21 | 0 | -10 | 10 | 7 | -13 | 6478 | 4.6
C#CCN(C(=O)c1ccc(OC2CCN(C(=O)CCOC)CC2)cc1)C1CCCCC1 | 4 | 5 | -3 | 5 | 2 | 3877 | 2.7
COc1cc([N+](=O)[O-])ccc1NC(=O)CN1CCc2cc(OC)c(OC)cc2C1 | 4 | 6 | 0 | -4 | -3 | 3596 | 1.6
Cn1c(SCC(=O)NC2CCCc3ccccc32)nnc1C1CC1 (configuration not stated) | 1 | nt | 10 | -2 | 13 | 6753 | 4.3
Cc1cccn2c(=O)c(/C=C(\C#N)C(N)=O)c(Oc3ccccc3)nc12 | -4 | 15 | -3 | -3 | -14 | 4422 | 3.7
O=C(Nc1ccc(Cl)c(Cl)c1)c1ccccc1NC(=O)C1CC=CCC1C(=O)O (configuration not stated) | -7 | nt | 4 | 8 | -15 | 5437 | 0.6
